# Assay outcomes from PubChem.
# MARV entry inh – blocks Marburg virus binding to or entry into cells; Marburg virus pseudotyped entry inhibition, cell reporter; control for the full effect not named in the record; about a third of the inactives were read at about 46 µM; 300,000 tested, 1.8% active; Potency, µM (highest dose often 37.8 µM), for the others: at the highest dose activity change, negative = inhibition, hits mostly inhibitors; active = well fitted inhibition curve with a large enough effect; inconclusive = small, poorly fitted or top-dose-only effect, or effect the other way; inactive = flat fitted curve, though single readings scatter; tested in HEK293 cells; about a fifth of its hits are not listed in these tables; note: % is set by controls: 0 for no effect and ±100 for the full control effect; luciferase read-out
# Cruzain noTriton – blocks cruzain activity in detergent-free assay; AID 1476; Potency, µM, for the others: max response, negative = inhibition, usual class: inhibitors; purified cruzain, Z-FR-AMC fluorescence, no detergent; 200,000 tested, 2.3% active;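 note: plate controls were enzyme without inhibitor for no effect and buffer without enzyme for full effect; nearly all actives have a fitted effect of over 40% in size; top concentration of the series not given in the record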
# Target sequence (P25779 123-467 limits assumed): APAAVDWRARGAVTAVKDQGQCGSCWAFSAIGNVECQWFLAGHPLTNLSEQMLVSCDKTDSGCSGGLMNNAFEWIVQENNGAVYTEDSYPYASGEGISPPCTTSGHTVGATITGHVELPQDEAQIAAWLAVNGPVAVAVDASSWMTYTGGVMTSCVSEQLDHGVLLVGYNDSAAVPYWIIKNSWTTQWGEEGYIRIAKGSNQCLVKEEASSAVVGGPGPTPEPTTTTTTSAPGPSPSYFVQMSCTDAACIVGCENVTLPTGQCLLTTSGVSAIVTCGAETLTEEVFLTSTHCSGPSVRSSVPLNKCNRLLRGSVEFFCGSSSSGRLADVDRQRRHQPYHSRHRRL
#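 Detergent-free condition (0.00005% Triton X-100) in acetate buffer pH 5.5 with DTT. 1.5 nM enzyme and compound were pre-mixed 15 min, then 2 uM Z-FR-AMC substrate added; reaction progress from fluorescence change between first and third reads (60 s).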
# SARS PLpro yeast – SARS-CoV PLP inhibition in yeast | S. cerevisiae expressing SARS-CoV PLpro, growth rescue; control for the full effect not named in the record | Potency, µM (series often up to 32.9 µM), for the others: at the top dose activity, positive = growth rescue | 330,000 tested, 0.19% active | AID 485353; active means well fitted rising curve with a large enough effect; inconclusive means small, poorly fitted or top-dose-only effect; inactive means no such curve, though single readings can be large or run the other way; note: 0% is about no effect; nearly all actives have a fitted effect of over 55% in size; growth read by luminescence after 48 h
# LASV entry inh – Lassa virus entry inhibition; AID 540256; Lassa virus pseudotype entry inhibition, cell reporter; control for the full effect not named in the record; 300,000 tested, 1.2% active; Potency, µM (doses to about 37.9 µM), for the others: at the highest dose activity change, negative = inhibition, actives largely listed as inhibitors; active means well fitted inhibition curve with a large enough effect; inconclusive means small, poorly fitted or top-dose-only effect, or effect the other way; inactive means flat fitted curve, though single readings scatter; tested in HEK293 cells; note: % is set by controls: 0 for no effect and ±100 for the full control effect; nearly all actives have a fitted effect of over 50% in size; luciferase read-out
# NS1 inh – influenza NS1 inhibition | S. cerevisiae slowed by influenza A NS1, growth recovery by OD600 | Potency, µM (series often up to 46.1 µM), inactives show top-dose activity, positive = more growth | 270,000 tested, 0.4% active | AID 2326; active means well fitted rising curve with a large enough effect; inconclusive means small, poorly fitted or top-dose-only effect; inactive means no such curve, though single readings can be large or run the other way; note: nearly all actives have a fitted effect of over 50% in size
#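 Read-out: OD600 growth recovery of NS1-expressing budding yeast. Cells grown overnight at 30C in -URA glucose medium, washed, resuspended and diluted 1:100 in 2% galactose assay medium, pH 6.0. Same strain lacking NS1 served as positive control.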
# StopGo reporter – lowers the luciferase signal of an FMDV 2A StopGo reporter | human cells with a luciferase reporter of 2A StopGo recoding; control for the full effect not named in the record | Potency, µM (top dose mostly 57.9 µM), for the others: at the top dose signal change, negative = less light | 410,000 tested, 1.2% active; active = well fitted falling curve with a large enough effect; inconclusive = small, poorly fitted or top-dose-only effect; inactive = no such curve, though single readings can be large or run the other way; tested in HEK293T cells; note: % is set by controls: 0 for no effect and ±100 for the full control effect; nearly all actives have a fitted effect of over 45% in size; luciferase light after 4 h
# RE007 growth inh – less growth of the S. pombe RE007 Vpr strain | S. pombe RE007 Vpr strain, BacTiter-Glo ATP luminescence, 24 h; control for the full effect not named in the record | Potency, µM (doses to about 92.2 µM), for the others: at the highest dose activity change, negative = less growth | 360,000 tested, 0.21% active | AID 651644; active = well fitted falling curve with a large enough effect; inconclusive = small, poorly fitted or top-dose-only effect; inactive = no such curve, though single readings can be large or run the other way;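 note: % is set by controls: 0 for no effect and ±100 for the full control effect; nearly all actives have a fitted effect of over 50% in size; the assay follows cell death caused by Vpr and the record does not say whether a fall means rescue or toxicity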
#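 Fission yeast RE007 carrying one integrated HIV-1 vpr copy, seeded at OD 0.01 in PMG+AL medium with 23 nL pinned compound. Grown 24 h at 30 degrees; viability read by BacTiter-Glo luminescence after 5 min.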
# Cruzain inh Det – inhibitors of Trypanosoma cruzi cruzain with detergent; purified cruzain, Z-FR-AMC fluorescence, 0.01% Triton; P25779; 200,000 tested, 0.43% active; Potency, µM, for inactives: max response, negative = inhibition, most hits filed as inhibitors; AID 1478;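 note: plate controls were neutral wells for no effect and buffer without enzyme for full effect; nearly all actives have a fitted effect of over 40% in size; top concentration of the series not given in the record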
#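 Enzyme 1.5 nM, Z-FR-AMC 2 uM, NaOAc 100 mM pH 5.5, DTT 5 mM, Triton X-100 0.01%; 15 min RT compound preincubation; kinetic ex360/em450, 60 s delta.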
# * = called active by the depositor; ? = inconclusive; · = not tested or not shown; & = joins results of further samples; [ ] = dose if it differs, or a comment. Unless noted, calls come from the whole dose curve; as a rule, active = well fitted curve in the direction sought with a large enough effect; inconclusive = small, poorly fitted or top-dose-only effect, or another doubt; inactive = no such curve, though single readings can be large; an effect the other way counts as inactive or inconclusive. Potency is the fitted concentration of half-maximal effect.
SMILES,MARV entry inh,Cruzain noTriton,SARS PLpro yeast,LASV entry inh,NS1 inh,StopGo reporter,RE007 growth inh,Cruzain inh Det
Cc1ccc(N2C(=O)CC(NCc3ccc4c(c3)OCO4)C2=O)cc1Cl (stereo not given),?,-1%,?,-4%,-46%,0%,?,-0.1%
O=[N+]([O-])c1ccc(-c2nc(-c3cccs3)c(-c3cccs3)[nH]2)cc1,?,32µM*,-30%,?,-43%,25µM*,-18%,-2.4%
Cc1cccc(OCC(=O)Nc2ccc(CN3CCOCC3)cc2)c1C,19%,·,?,13%,-8%,?,10%,·
CC(C)(C)c1ccc(SCCc2ccccn2)cc1,7%,·,0%,-4%,-8%,19%,14%,·
CCn1cc(C(=O)NCCCOC)c(=O)c2cc(S(=O)(=O)N3CCCC3)ccc21,14%&14%[46.1 µM],-4%,4%,-9%[46.1 µM],0%,-15%&-22%,6%,-4.6%
CC(=O)Nc1cccc(NC(=O)CSc2nnc(Cc3cccn3C)n2-c2ccc(C)cc2)c1,-13%,?,2%,3%,-6%,-15%,3%,-2.4%
ONC(=Nc1ccccc1)C(=Nc1ccccc1)NO,-1%,5%,-5%,?,0%,12%,22%,0.9%
N#Cc1ccccc1NC(=O)c1cc(=O)c2ccccc2o1,24%[46.1 µM],·,-7%,-5%,·,38%[activator],-10%,·
O=C(OCCC1Oc2cccnc2NC1=O)c1ccc(F)cc1 (stereo not given),?,·,0%,-2%,5%,-23%,7%,·
CC(C)OC(=O)CC(=O)CSc1nc2c(c(-c3cccs3)c1C#N)CCC2,·,-2%,17%,·,30%,-14%,6%,-5.8%
CCOC(=O)c1c(NC(=O)C(C)NCc2ccco2)sc2c1CCC(C)C2 (stereo not given),?,18%,-36%,-17%,-66%,?,6%,-4.2%
COC(=O)c1sccc1NC(=S)N1CCN(c2cccc(C)c2C)CC1,-11%,16µM*,-50%,?,-2%,?,-8%,-2.1%
CCN(CC)C(=O)c1c(-c2ccccc2)oc2ccc(O)cc12,-16%[46.1 µM],·,0%,-8%[46.1 µM],-9%,-17%,-7%,·
Cc1ccc(C)c(NC(=S)NNC(=O)c2ccco2)c1,20%,-3%,3%,24%,4%,38%[activator],0%,0.4%
Cc1ccc(-c2nc(=S)c3c(n2Cc2ccco2)CC(C)(C)OC3)cc1,13µM*,-19%,0%,-18%,12%,?,21%,-4.8%
Cc1ccc(OCCNC(=O)c2ccc3ccccc3n2)cc1,0%[46.1 µM],·,-3%,?,-6%,15%,31%,·
Cc1noc(C)c1C(=O)Nc1nnc(CC(C)C)s1,4%[46.1 µM],·,-1%,23%,-5%,-7%,8%,·
Cc1ccc(-n2c(=O)c3ccc(C(=O)NCc4ccco4)cc3n(CC(=O)Nc3ccccc3C(F)(F)F)c2=O)cc1,8%[46.1 µM],-14%,·,-2%[46.1 µM],·,7%,·,-2.0%
COC(=O)c1cc(OC)c(OC)cc1NC(=O)c1ccc2c(c1)CCN2S(=O)(=O)c1ccccc1,?,1%,·,0%[46.1 µM],·,-15%,·,0.5%
CCCCn1c(N)c(N(CCOC)C(=O)C2CCN(c3ncnc4sc(C)c(C)c34)CC2)c(=O)[nH]c1=O,-1%[46.1 µM],·,-2%,26%,·,-25%,-15%,·
O=C(COc1ccc(-c2ccccc2)cc1)N/N=C/c1cc(O)ccc1Br,6%,?,-30%,1%,-3%,-17%,6%,-3.5%
CCOC(=O)C1=C(C)OC(N)=C(C#N)C1c1cc2cc(C)ccc2nc1N1CCCCC1 (stereo not given),?,-16%,-20%,-1%,-9%,13%,4%,-16%
COc1cccc(NC(=S)NN2C(C)CCCC2C)c1 (stereo not given),6%,-7%,?,0%,2%,19%,12%,-3.7%
C/C(=N\NC(=O)c1cccnc1)c1ccc(OC2OCCOC2Oc2ccc(/C(C)=N/NC(=O)c3cccnc3)cc2)cc1 (stereo not given),9%[14.2 µM],·,4%,-1%,·,?,48%,·
CCN(CC)CCNC(=O)c1ccc(NC(=O)c2ccccc2-c2ccc(C(F)(F)F)cc2)cc1,2.8µM*,·,-3%,?,10%,-11%,2%,·
CC(C)c1ccc(NC2CCCN(C(=O)c3ccncc3)C2)cc1 (stereo not given),·,·,5%,·,-4%,?,-17%,·
O=C(c1cccc(Br)c1)N1CCN(Cc2cc(=O)n3nc(-c4ccccc4)sc3n2)CC1,·,9%,·,5%[46.1 µM],·,-16%,·,6.2%
Cc1c(C(=O)N2CCC(C)CC2)sc2ncn(CC(=O)N3CCC(C)CC3)c(=O)c12,·,·,-4%,·,1%,-3%,-2%,·
Cc1ccc2cccc(NC(=O)c3ccc(-c4cccc(Cl)c4)o3)c2n1,1%[46.1 µM],-2%,·,18%[46.1 µM],·,1%,·,0.6%
Cc1ccc(S(=O)(=O)NCCSc2nnnn2-c2cc(C)ccc2C)cc1,?,14%,-4%,8.9µM*,-67%,-11%,26%,-1.3%
CCOC(=O)C1=C(c2ccc(OC)cc2)C(=O)c2ccccc2C1=O,?,-6%,-83%,?,-32%,3.5µM*,20µM*,-8.2%
CCCCN(c1nc2ccccc2nc1Cl)S(=O)(=O)c1ccc(C)cc1,·,·,-5%,·,4%,-22%,5%,·
COc1ccc(CCN(C)C2CCCN(C(=O)c3sccc3C)C2)cc1OC (stereo not given),9%,·,?,-13%,4%,-20%,-18%,·
CN(C)CCNC(=S)Nc1ccccc1Cl,-13%,-1%,-23%,19%,5%,7%,1%,0.8%
O=C(c1ccc2c3c(cccc13)CC2)C1CCCN(Cc2ccc(OCCO)cc2)C1 (stereo not given),·,·,0%,·,0%,?,7%,·
Cc1c(Cl)cccc1NC(=S)Nc1ccc(S(=O)(=O)Nc2ncccn2)cc1,19%,·,4%,?,·,5%,-17%,·
O=C(Cn1cnc2scc(-c3ccc(F)cc3)c2c1=O)N1CCOCC1,-1%,0%,0%,-4%,7%,14%,0%,2.0%
CCOc1ccc(OCC)c(NC(=O)C2CCN(S(=O)(=O)c3cnc[nH]3)CC2)c1,-3%[46.1 µM],-5%,-1%,-3%,-5%,0%,0%,1.1%
C[N+](C)(C)CCCNC(=O)c1ccc(/C=N/O)nc1,?,·,0%,6%,·,-21%,17%,·
Cc1ccccc1C(=O)NCC(=O)NNC(=S)NC(=O)c1ccccc1C,?,-2%,-3%,16%,8%,-15%,-4%,-10%
CCCn1c(=O)cc(N)n(-c2ccc(OC(F)(F)F)cc2)c1=O,·,·,0%,·,-1%,-24%,11%,·
CC(C)[C@H](NC(=O)c1cccc(S(=O)(=O)N2CCOCC2)c1)C(=O)Nc1nc2ccccc2s1,?,?,3%,?,23%,52%[activator],-5%,-3.2%
c1ccc(CCc2ccccc2-c2nc(-c3cccnc3)no2)cc1,?,3%,-33%,-14%,-57%,?,-3%,-4.0%
CCC(=O)N1CCc2cc(Br)cc(S(=O)(=O)N3CCCC(C(=O)NC(C)(C)C)C3)c21 (stereo not given),?,·,-1%,11%,7%,15%,-5%,·
Cc1cccc2sc(NC(=O)c3ccc(NS(=O)(=O)c4cccs4)cc3)nc12,?,?,3%,28%,8%,-22%,3%,-7.4%
CC(C)(C)OC(=O)N1CCC(c2c(C(=O)NCCN3CCOCC3)cnn2-c2cccc(Cl)c2)CC1,·,5%,·,?,·,-13%,·,-0.3%
O=C(NCCc1ccccc1)C1CCN(Cc2cc3ccccc3n2Cc2ccccc2)CC1,·,-4%,·,?,·,-15%,·,-3.2%
O=[N+]([O-])c1nn(-c2ccccc2)n(O)c1=NC1CCN(Cc2ccccc2)CC1,?,·,-1%,?,3%,-18%,-8%,·
CS(=O)(=O)Nc1ccccc1C(=O)Nc1cc2c(cc1C(=O)O)OCCCO2,8%[46.1 µM],·,0%,13%[46.1 µM],17%,0%,1%,·
Cc1[nH]c2ccccc2c1/C=N/NC(=O)CNC(=O)c1ccc2c(c1)OCO2,1%[46.1 µM],-2%,13%,-13%,?,-13%,-4%,-5.1%

# Next part; it opens with the two that closed the last part.
SMILES,MARV entry inh,Cruzain noTriton,SARS PLpro yeast,LASV entry inh,NS1 inh,StopGo reporter,RE007 growth inh,Cruzain inh Det
CS(=O)(=O)Nc1ccccc1C(=O)Nc1cc2c(cc1C(=O)O)OCCCO2,8%[46.1 µM],·,0%,13%[46.1 µM],17%,0%,1%,·
Cc1[nH]c2ccccc2c1/C=N/NC(=O)CNC(=O)c1ccc2c(c1)OCO2,1%[46.1 µM],-2%,13%,-13%,?,-13%,-4%,-5.1%
Cc1cc(C)cc(NC(=O)CN2C(=O)NC(C)(c3ccccc3)C2=O)c1 (stereo not given),-17%[46.1 µM],3%,6%,-1%,7%,-15%,51%,-5.4%
C/C(=N/NC(=O)c1ccco1)c1cccc(NC(=O)c2ccc(C)o2)c1,34%,-2%,-6%,1%,-22%,30%[activator],-7%,1.7%
Cc1nn(Cc2ccc(Cl)cc2Cl)c(Cl)c1C(=O)O,5%,·,0%,4%,20%,-22%,26%,·
Cc1nc(C)c(C(=O)O)c(-c2ccsc2)c1C(=O)O,7%[46.1 µM],·,-1%,3%,4%,-1%,2%,·
COc1ccccc1NC(=S)N1CCCC1,-1%,-5%,12%,-8%,6%,-12%,2%,-1.2%
N#CC1(NC(=O)CSc2nc3ncc(Cl)cc3[nH]2)CCCCC1,-15%,·,14%,-1%,·,-19%,-2%,·
O=C(NC1CCCCC1)C(c1ccncc1)N(Cc1ccc2c(c1)OCO2)C(=O)c1cnsn1 (stereo not given),-16%,3%,14%,7%,-5%[9.22 µM],-4%,-12%,-3.5%
CSC1=NC2(C)CCCCC2C12C=CC(=O)C=C2 (stereo not given),·,·,-2%,·,-3%,0%,9%,·
COc1ccccc1CCN=C(N)NS(=O)(=O)c1ccc(C)cc1,·,·,0%,·,1%,2%,21%,·
CCOC(=O)c1sc(NC(=O)c2ccncc2)nc1C,6%,1%,-11%,17%,1%,38%[activator],13%,-2.9%
N#Cc1cccc(NC(=O)COC(=O)c2cc(S(=O)(=O)Nc3ccccc3Cl)ccc2O)c1,0%,·,-13%,9%,·,?,-18%,·

# Random draw from the library; overall some 4.5% were active at least once.
